# Screening results: PubChem, National Center for Advancing Translational Sciences (NCATS)
# PK Bst – alters activity of Bacillus stearothermophilus pyruvate kinase; partly purified Bacillus stearothermophilus pyruvate kinase, luminescence ATP production; ribose 5-phosphate activator present at AC10; AID 361; 1.2% of 51,000 active; Potency, µM; in the data active means potency below about 11 µM; inconclusive means mostly about 12 µM to 25 µM; inactive means weaker than that;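 the screen sought inhibitors and activators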;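 note: potency is the fitted concentration of half-maximal effect; scaled between full activation by ribose 5 phosphate and full inhibition by luteolin; about four in five hits inhibit and the cells do not say which; series up to 57 µM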
# YjeE inh – inhibitors of E. coli YjeE (TsaE); purified YjeE, fluorescence polarisation of a bound ADP probe; Potency, µM; 0.05% of 71,000 active; active = well fitted falling curve; inconclusive = weaker or top-dose-only fall, or a rising curve; inactive = flat or poorly fitted curve;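 note: top concentration of the series not given in the record; excess ADP was the control for the full effect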
#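 Fluorescence polarization of a BODIPY Texas Red–ADP probe (2 uM) bound to purified YjeE (10 uM) was read after 15 min room-temperature incubation with compounds. Loss of polarization marks inhibitors; ADP serves as titrated control.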
# * = called active by the depositor; i = inactive; nt = no result given. The list is partial (hit frequency here may not be typical).
SMILES,PK Bst,YjeE inh
COc1cc(/C=N/n2cnnc2)ccc1OCCOc1ccccc1,nt,i
CN1[C@@H]2CC[C@H]1CC(NC(=O)c1nn(C)c3ccccc13)C2 (stereo not given in full),nt,i
CCSc1nc2ccccc2n1CC(=O)N1CCOCC1,nt,i
CCOc1ccc(CNc2ccc3c(c2)nc(C)n3C)cc1,nt,i
Cc1cccc(-c2nnc(SCc3cc(=O)[nH]c4ccccc34)n2C)c1,>57,i
CC1(c2ccccc2)NC(=O)N(CCOc2ccccc2)C1=O (stereo not given),>57,i
Cc1c(C(=O)OC2CCCCC2)sc2nc[nH]c(=O)c12,>57,i
Cn1c(=O)c2c(nc(N3CCCCCC3)n2CC(O)COc2ccc(Cl)cc2)n(C)c1=O (stereo not given),>57,i
O=C(c1noc2c1CCc1ccccc1-2)N1CCCc2ccccc21,>57,i
CCOC(=O)c1[nH]c(C)c(C(=O)NCCCOC(C)C)c1C,>57,i
COc1ccc(CNc2ncncc2-c2ccoc2)c(OC)c1,nt,i
CCOC(=O)N1CCN(c2ccc(C(=O)c3ccccc3)cc2F)CC1,nt,i
CCSc1ccccc1C(=O)n1nnc2ccccc21,>57,i
Cc1cc(COc2ccccc2OCc2cc(C)no2)on1,>57,i
O=C(CCCCn1c(=O)[nH]c2ccccc2c1=O)NCCc1c[nH]c2ccccc12,nt,i

# Of the compounds above, these contain sulfur:
SMILES,PK Bst,YjeE inh
CCSc1nc2ccccc2n1CC(=O)N1CCOCC1,nt,i
Cc1cccc(-c2nnc(SCc3cc(=O)[nH]c4ccccc34)n2C)c1,>57,i
Cc1c(C(=O)OC2CCCCC2)sc2nc[nH]c(=O)c12,>57,i
CCSc1ccccc1C(=O)n1nnc2ccccc21,>57,i

# (more compounds)
SMILES,PK Bst,YjeE inh
CC(=O)OCc1cc2cccc(C)c2[nH]c1=O,>57,i
O=C(Cn1nc(C(=O)O)c2ccccc2c1=O)NCCC1=CCCCC1,>57,i
COc1ccc(CN2C(=O)CCC2(C)C(=O)NC2CCCC2)c(OC)c1 (stereo not given),nt,i
Cn1c(/C(C#N)=C(\O)c2ccc(S(=O)(=O)N3CCCCC3)cc2)nc2ccccc21,>57,i
CN1CCc2c(sc3c2c(=O)n(-c2ccccc2)c2nnc(SCc4ccccc4F)n32)C1,>57,i
N[C@@](CC(=O)O)(Cc1ccccc1)C(=O)O,nt,i
COC(=O)c1sc(NC(=O)CSc2nnnn2-c2ccc(C)cc2C)nc1C,>57,i
Nc1nc(-c2cc(-c3cccc4ccccc34)nc(N)n2)cc(-c2cccc3ccccc23)n1,nt,i
CCSC1(SCC)N=C(N)C2(C#N)C(c3ccccc3)NC(C)=C(C)C12C#N (stereo not given),>57,i
O=C(O)CCC(=O)N1CCC(C(=O)c2cccc(Cl)c2)CC1,>57,i
O=c1cc(N2CCOCC2)[nH]c(=O)n1-c1ccc(Br)cc1,nt,i
O=C1Nc2ccccc2C12Nc1ccccc1-c1nc3ccccc3n12 (stereo not given),>57,i
CCOc1ccc(OCc2cccc(C(=O)N3CCOCC3)c2)cc1,8.5*,i
CCC1CCCCN1S(=O)(=O)c1ccc(C(=O)Nc2nnc(-c3cccs3)o2)cc1 (stereo not given),>57,i
COC(=O)C1=C(C)N(c2ccc(S(N)(=O)=O)cc2)C(=O)C1,nt,i
CCOC(=O)c1[nH]c(C)c(C(=O)NCC2CCCO2)c1C (stereo not given),>57,i
Cc1c(N=c2c(=O)c3ccccc3c2=O)c(=O)n(-c2ccccc2)n1C,nt,i
CCCn1c(=O)c2ccccc2n2c(SCCOc3ccc(C)cc3)nnc12,nt,i
CCC(CC)n1[nH]c(=O)c2c(C)cc(C)nc21,>57,i
O=C1c2cccc3cccc(c23)C(=O)N1c1nncs1,>57,i
COc1ccc(-c2cc(C(=O)Nc3cc(C)n(Cc4ccc(Cl)cc4)n3)no2)cc1OC,>57,i
COc1ccc(C(=O)N2CCC(C(=O)Nc3ccccc3OC)CC2)cc1,>57,i
CCOC(=O)c1oc2cc(OCC(N)=O)ccc2c(=O)c1-c1ccc(OC)c(OC)c1,>57,i
O=C(NCCc1ccc(Cl)cc1)C1CCN(S(=O)(=O)N2CCC3(CC2)OCCO3)CC1,>57,i
COc1ccccc1CCNS(=O)(=O)c1c(C)n(C)c(=O)n(C)c1=O,nt,i
CC(=O)Nc1nonc1NC(=O)CSc1nc2ccccc2o1,>57,i
CSc1nc2ccccc2n1CC(=O)N1CCCCC1,>57,i
O=C(OCCN1C(=O)c2ccccc2C1=O)c1cnccn1,>57,i
Cc1sc2nc(SCC(=O)OC(C)C)n(C)c(=O)c2c1C,>57,i
CCOC(=O)N1CCN(C(=O)c2ccc(CN(c3ccc(C)c(C)c3)S(C)(=O)=O)cc2)CC1,nt,i
Cc1cccc(NC(=O)CSc2nnc([C@@H]3CCCN3C(=O)OC(C)(C)C)o2)c1C,>57,i
C=Cn1c(C(=O)O)cc(CC)c1-c1ccccc1,>57,i
Nc1c(S(N)(=O)=O)cc(S(N)(=O)=O)cc1S(N)(=O)=O,nt,i
N#Cc1c(N)sc(=S)c2c1CCCCC2,>26,nt
O=C1CC(c2ccccc2)CC(O)=C1C=NCCN1CCN(C(=O)Nc2ccccc2)CC1 (stereo not given),>57,i
CN(C)C(=O)Cn1cnc2c(cnn2-c2ccccc2Cl)c1=O,>57,i
Cc1noc(C)c1C(=O)N1CCN(CCc2ccccc2)CC1,>57,i
CCOc1ccc2c(ccc(/C=C\c3cc(C)c4cccnc4c3O)[n+]2C)c1,nt,i
COC(=O)c1cccc(NC(=O)c2cccc(OC)c2)c1,nt,i
COC(=O)[C@@]1(Cc2ccccc2)[C@H]2c3cc(C(=O)N4CCCC4)n(Cc4nc5ccccc5[nH]4)c3C[C@H]2CN1C(=O)c1ccccc1,nt,i
Cc1nn(Cc2c(Cl)cccc2Cl)c(C)c1NC(=O)c1cc(C(C)C)on1,nt,i
COc1ccc(OC)c(S(=O)(=O)N(C)CC(=O)Nc2ccc3c(c2)OCCO3)c1,>57,i
O=C(NCCc1ccccc1)C1CCN(C(=O)c2sccc2-n2cccc2)CC1,nt,i
O=C(Nc1ccccc1F)NC1CCN(Cc2nnnn2Cc2ccc(F)cc2)CC1,>57,i
O=C1C[C@@H](c2ccc(O)cc2)Oc2cc(O)cc(O)c21,nt,i
O=C(CSc1nc2c(cnn2-c2ccc(F)cc2)c(=O)[nH]1)N1CCOCC1,nt,i
Cn1nc(CC(=O)Nc2ccc(N3CCN(C(=O)OC(C)(C)C)CC3)cc2)c2ccccc2c1=O,>57,i
O=C(NC1CCCCC1)c1nc2c(nnn2Cc2ccccc2Cl)c(=O)[nH]1,i,i
COc1ccccc1-c1coc2c(CN3CCN(CCO)CC3)c(O)ccc2c1=O,>57,i
S=c1nc(-c2nc(=S)[nH]c3c2CCCCCCCCCC3)c2c([nH]1)CCCCCCCCCC2,nt,i
Cn1c(=O)n(C)c2cc(C(=O)O)ccc21,>57,i
Cn1c2c(c(=O)n(C)c1=O)C(c1ccc(Br)cc1)Nc1ccccc1O2 (stereo not given),>57,i
COc1cc(NC(=O)c2cc(OC)c(OC)c(OC)c2)c(OC)cc1NC(=O)CN1CCCCC1,nt,i
O=C(CSc1nnc2scc(-c3ccccc3)n12)Nc1nsc(-c2ccc(Cl)cc2)n1,nt,i
COc1cccc(N(C(=O)CNC(=O)c2ccco2)C(C(=O)NC2CCCCC2)c2ccncc2)c1 (stereo not given),>57,i
Cc1coc(C)c1C(=O)CC1(O)C(=O)Nc2cc(Cl)cc(Cl)c21 (stereo not given),nt,i
COc1ccc(CC(=O)c2ccccc2C(=O)O)cc1,>57,i
Cn1cc(Cl)c(C(=O)N2CCN(c3ncccn3)CC2)n1,>57,i
CC1CCC(C(C)C)C(OC(=O)COC(=O)c2cccn2C)C1 (stereo not given),>57,i
Cc1nc(C2CC(=O)OC23CCCCC3)cs1 (stereo not given),nt,i

# Entries listed above printed as active in PK Bst.
SMILES,PK Bst,YjeE inh
CCOc1ccc(OCc2cccc(C(=O)N3CCOCC3)c2)cc1,8.5*,i

# Following part:
SMILES,PK Bst,YjeE inh
CCOC(=O)N1CCN(C(=O)COc2ccc(S(=O)(=O)NC(C)C)cc2)CC1,nt,i
CCOC(=O)CC(=O)CSc1nc(N)c(C#N)c(-c2ccc(Cl)cc2)c1C#N,>26,nt
COc1ccccc1CN1CCCC2(CCN(C(=O)c3cccc(F)c3)CC2)C1,nt,i
CC(C)(C)NC[C@@H](O)c1ccc(O)c(CO)n1,nt,i
COc1ccc(CCNC(=O)C2CC(=O)N(C3CCCC3)C2)cc1OC (stereo not given),>57,i
CC(=O)Nc1ccc(-n2c(C)nc(=O)c(-c3ccccc3)c2C)cc1,>57,i
C=CCN1C(c2ccccc2)=CS/C1=C(\C#N)c1nnc2n1CCCCC2,>57,i
COc1cccc(-c2cc(=O)c3ccccc3o2)c1N,nt,i
CC(C)C(NC(=O)OCc1ccccc1)C(=O)OCC(=O)N1C(C)CCCC1C (stereo not given),>57,i
Cc1ccccc1NC(=O)c1cc(N)ccc1N1CCCCC1,>57,i
Cn1c(=O)cc(SCC(=O)N2CCCC2)c2cc(Cl)ccc21,nt,i
CCCCC(CC)C(=O)NCc1ccccc1OC (stereo not given),>57,i
COc1c(Cl)ccc(Cl)c1C(=O)OCC(=O)O,nt,i
Cc1ccc(C2(C)NC(=O)N(Cc3c(C)noc3C)C2=O)cc1 (stereo not given),>57,i
O=C1N=C(N2CCOCC2)SC1=C1CCCCC1,nt,i
O=C(CCn1c(=O)sc2ccccc21)NCc1ccc2c(c1)OCO2,nt,i
CCOC(=O)c1oc2ccc(Br)cc2c1NC(=O)CN1CCN(C)CC1,nt,i
Cn1c(=O)c(-c2ccc(F)cc2)nc2cncnc21,nt,i
Cc1ccc(OCC(=O)N2CCN(C(=O)Cc3ccccc3)CC2)cc1,nt,i
CC1=CCC2C(=O)N(c3cccc(C(=O)N(C)C4CCCCC4)c3)C(=O)C2C1 (stereo not given),nt,i
O=C(NCCCN1CCOCC1)c1ccc(CS(=O)(=O)Cc2ccc(Cl)cc2)o1,>57,i
C/C(=C\c1cc(C(=O)O)c(C)o1)CO,>57,i
CC(C)CC(OC(=O)c1cccs1)C(=O)NCC1CCCO1 (stereo not given),>57,i
COc1ccc(NC(=O)C2CCCN2S(=O)(=O)c2ccc3c(c2)CCC(=O)N3)cc1Cl (stereo not given),nt,i
CC(C)OC(=O)CSc1nnc(Cc2ccccc2)n1Cc1ccco1,>57,i
Cc1nc(COC(=O)c2ccc(S(=O)(=O)N3CCCC3)cc2)cs1,>57,i
Cc1ccc(S(=O)(=O)NC(CC(=O)N2CCOCC2)c2ccco2)cc1 (stereo not given),>57,i
CCOC(=O)c1ccc(NC(=O)N(CC)CC)cc1,nt,i
Clc1ccc(-n2ncc3c(NCc4ccc5c(c4)OCO5)ncnc32)cc1,>57,i
CN1CCN(c2ncc3nc(-c4ccccc4)c(=O)n(C4CC4)c3n2)CC1,nt,i
CCOC(=O)c1c(C)n(C)c2ccc(OC)c(NC(=O)CN3CCN(C(=O)c4ccco4)CC3)c12,>57,i
CCOC(=O)CN1Cc2cccc(C(=O)O)c2C1=O,nt,i
Cn1c(=O)c(-c2cccs2)nc2cnc(OCc3ccccc3)nc21,nt,i
CCOc1ccc(N(Cc2cc3cc(OC)ccc3[nH]c2=O)S(C)(=O)=O)cc1,>57,i
COc1c(C)c2c(c(O)c1C/C=C(\C)CCC(=O)O)C(=O)OC2,nt,i
O=C(NCCNC(=O)c1ccco1)c1cccc(F)c1,>57,i
O=C(O)c1cccc(C[C@H](Br)C(=O)O)c1,nt,i
O=C1OC(N2CCN(C(=O)c3ccco3)CC2)c2ccccc21 (stereo not given),>57,i
CC1Cn2c(CCc3ccccc3)nnc2S1 (stereo not given),>57,i
O=C(CSc1ncccc1-c1nc2ccccc2[nH]1)N1CCCCC1,>57,i
CCOC(=O)C1CCCN(CCC(=O)Nc2ccc3c(c2)CCC3)C1 (stereo not given),>57,i
Cc1ccc2c(N)c(C)ccc2c1,>57,i
C1=C(CCNc2nnnn2-c2ccccc2)CCCC1,>57,i
CCOC(=O)c1[nH]c(C)c(C(=O)Nc2cccc(Cl)c2C)c1C,>57,i
COCCOC(=O)c1[nH]c2c(c1C)C(=O)C(C(=O)OC)C(C)C2 (stereo not given),nt,i

# Exported with tabs: part of the list above
compound	PK Bst	YjeE inh
CCOC(=O)CN1Cc2cccc(C(=O)O)c2C1=O	nt	i
Cn1c(=O)c(-c2cccs2)nc2cnc(OCc3ccccc3)nc21	nt	i
CCOc1ccc(N(Cc2cc3cc(OC)ccc3[nH]c2=O)S(C)(=O)=O)cc1	>57	i
COc1c(C)c2c(c(O)c1C/C=C(\C)CCC(=O)O)C(=O)OC2	nt	i
O=C(NCCNC(=O)c1ccco1)c1cccc(F)c1	>57	i

# Going on with the list:
SMILES,PK Bst,YjeE inh
CCc1nc(N2CCCCC2)c2oc3ccccc3c2n1,i,i
Clc1ccc(OCc2nc(-c3ccccn3)n[nH]2)cc1,nt,i
COc1ccc(CCn2nnnc2C(c2ccccc2)N2CCN(C)CC2)cc1OC (stereo not given),>57,i
CCCCOc1ccc(C2(C(=O)O)CCCC2)cc1,nt,i
c1ccc(SCc2nc(-c3ccncc3)no2)cc1,>57,i
CC1(C)Cc2ccccc2-c2c1c(=O)n(-c1ccccc1)c1nnnn21,>26,nt
C[n+]1cccc(CNC(=O)/C=N/O)c1,>26,nt
COc1ccccc1NC(=O)N1CCC(C(=O)c2ccc(F)cc2)CC1,>57,i
CN1C(=O)OC(C)(C)C1=O,nt,i
